Vaccinia inh = blocks a specific stage of Vaccinia orthopoxvirus infection; hit rate 0.01% among 89,000; Vaccinia-infected cells, mCherry/Venus stage reporter fluorescence; stronger effect = lower value; some inactives read as strong as hits; activity change (mCherry), % (test concentration not listed);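 active = mCherry past -33% and 40 or more points under the early reporter, replicates agreeing; inconclusive = past -33% without that gap or agreement; tested in A549 cells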;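 also: scaled between vehicle wells and reference inhibitor wells; 23 nL library stock went into each well; one replicate is shown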
Vaccinia inh Venus = recorded beside Vaccinia inh, whose call it bears; activity change (Venus), %; measured here: Venus reporter, other viral stage;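 negative = less Venus signal; first of two replicates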
Numbers without * were called inactive; ? = inconclusive; · = not tested or not shown; & = joins results of further samples. Only part of the results is shown. The share of hits here may be higher or lower than overall.

SMILES	Vaccinia inh	Vaccinia inh Venus
O=C(NC[C@H]1CC[C@H]2[C@H](CN2Cc2cc(-c3ccccc3)on2)O1)c1ccc2c(c1)OCO2	-10	-2
C[C@H](CO)N1C[C@H](C)[C@@H](CN(C)Cc2ccc3c(c2)OCO3)Oc2ccc(NC(=O)CCN3CCOCC3)cc2C1=O	18	6
O=C(Nc1ccccc1)[C@@H]1[C@@H](CO)[C@@H]2Cn3c(cccc3=O)[C@H]1N2C(=O)c1ccccc1	9	7
CO[C@H]1CN(C)C(=O)c2ccc(NS(=O)(=O)CC(F)(F)F)cc2OC[C@H](C)NC[C@@H]1C	35	30
Cc1ccc(S(=O)(=O)N2C[C@H](O)COC[C@H]3O[C@H](CC(=O)NCCN4CCCCC4)CC[C@@H]32)cc1	2	-2
COCC#Cc1cnc2c(c1)C(=O)N([C@H](C)CO)C[C@@H](C)[C@@H](CN(C)C(=O)CCN1CCCCC1)O2	26	7
CN1C(=O)c2cc(NC(=O)c3ccc(F)c(F)c3)ccc2OC[C@H]2O[C@@H](CC(=O)N[C@H]3CCN(Cc4ccccc4)C3)CC[C@H]21	?	·
C[C@H](CO)N1C[C@H](C)[C@H](CN(C)S(=O)(=O)c2ccc(-c3ccccc3)cc2)OCc2cnnn2CCCC1=O	-13	-9
C[C@@H]1CN([C@@H](C)CO)S(=O)(=O)c2ccc(-c3ccc(F)cc3)cc2O[C@H]1CN(C)Cc1ccccc1C(=O)O	20	5
COCC(=O)N1CC2(C1)CN(Cc1cccc(Cl)c1)[C@@H](CO)c1[nH]c3cc(OC)ccc3c12	26	14
COc1cccc(CNC(=O)C[C@@H]2CC[C@@H](NC(=O)C3CCOCC3)[C@H](CO)O2)c1	4	2
COc1ccccc1NC(=O)N1CCCCN2[C@H](C1)[C@H](c1ccc(-c3cccc(C)c3)cc1)[C@@H]2CO	?	·
COC(=O)C[C@H]1CC[C@@H](NS(=O)(=O)c2ccc(OC)cc2)[C@H](CO)O1	-2	4
C[C@H]1CCCCO[C@@H](CN(C)S(=O)(=O)c2ccccc2)[C@@H](C)CN([C@@H](C)CO)C(=O)c2cc(NC(=O)Cc3ccccc3)ccc2O1	?	·
O=C(N[C@H]1CC[C@@H](CCn2cc(C3(O)CCCC3)nn2)O[C@@H]1CO)C1CCCCC1	0	-7

Compound profiles, from the list above. Order of values: Vaccinia inh | Vaccinia inh Venus
CN1C(=O)c2cc(NC(=O)c3ccc(F)c(F)c3)ccc2OC[C@H]2O[C@@H](CC(=O)N[C@H]3CCN(Cc4ccccc4)C3)CC[C@H]21 is listed as ? | ·
O=C(Nc1ccccc1)[C@@H]1[C@@H](CO)[C@@H]2Cn3c(cccc3=O)[C@H]1N2C(=O)c1ccccc1 is listed as 9 | 7
C[C@H](CO)N1C[C@H](C)[C@H](CN(C)S(=O)(=O)c2ccc(-c3ccccc3)cc2)OCc2cnnn2CCCC1=O is listed as -13 | -9
O=C(N[C@H]1CC[C@@H](CCn2cc(C3(O)CCCC3)nn2)O[C@@H]1CO)C1CCCCC1 is listed as 0 | -7
O=C(NC[C@H]1CC[C@H]2[C@H](CN2Cc2cc(-c3ccccc3)on2)O1)c1ccc2c(c1)OCO2 is listed as -10 | -2

Further structures follow.
SMILES	Vaccinia inh	Vaccinia inh Venus
CO[C@@H]1CC[C@@H]2CCN(C)C(=O)[C@@H](C)CN(C)C(=O)c3cc(C#N)ccc3OC[C@@H]1O2	20	2
COc1ccc(S(=O)(=O)N(C)C[C@@H]2Oc3ncc(C#CC4(O)CCCC4)cc3C(=O)N([C@H](C)CO)C[C@H]2C)cc1	-13	-11
COc1ccc(S(=O)(=O)N(C)C[C@@H]2OCCCC[C@H](C)Oc3ccc(NC(=O)NC(C)C)cc3C(=O)N([C@@H](C)CO)C[C@H]2C)cc1	3	1
O=C(C[C@@H]1CC[C@@H]2[C@H](COC[C@@H](O)CN2Cc2ccc(Cl)cc2)O1)NCCc1ccccc1	?	·
C[C@H](CO)N1C[C@H](C)[C@H](CN(C)Cc2ccc(-c3ccccc3)cc2)Oc2ccc(NC(=O)CCCCCC(=O)Nc3ccccc3N)cc2CC1=O	?	·
CNC[C@H]1Oc2ccc(NC(=O)NC3CCCCC3)cc2CC(=O)N([C@@H](C)CO)C[C@H]1C	-8	-9
Cc1ccc(S(=O)(=O)Nc2cccc3c2O[C@@H](CN(C)Cc2ccc(-c4ccccc4)cc2)[C@H](C)CN([C@@H](C)CO)C3=O)cc1	-21	-9
C[C@@H]1CN([C@@H](C)CO)C(=O)c2cc(NC(=O)CCC(F)(F)F)ccc2O[C@@H]1CN(C)C(=O)NC1CCCCC1	2	4
CCCNC(=O)[C@H]1[C@H](CO)[C@H]2Cn3c(ccc(/C=C/c4ccccc4)c3=O)[C@@H]1N2C(=O)C1CCC1	1	6
C[C@@H]1CN([C@H](C)CO)C(=O)c2cc(NC(=O)NC3CCCCC3)ccc2O[C@H]1CN(C)Cc1ccc(Oc2ccccc2)cc1	?	·
CO[C@@H](CN(C)S(=O)(=O)c1ccc(C)cc1)[C@H](C)CN(C(=O)Nc1ccccc1F)[C@H](C)CO	-2	-1
COc1ccccc1NC(=O)N[C@H]1CC[C@H](CCNS(=O)(=O)c2ccc(F)cc2)O[C@H]1CO	-7	2
COc1ccc(S(=O)(=O)Nc2cccc3c2O[C@@H](CN(C)S(=O)(=O)c2ccc(Cl)cc2)[C@@H](C)CN([C@H](C)CO)C3=O)cc1	-24	-13
COc1ccccc1C#Cc1ccc2c(c1)O[C@@H](CN(C)Cc1cccnc1)[C@H](C)CN([C@H](C)CO)S2(=O)=O	?	·
COc1ccccc1NC(=O)N1CCCCN2[C@@H](CO)[C@@H](c3ccc(-c4cccc(C)c4)cc3)[C@@H]2C1	?	·
O=C([C@@H]1[C@@H](CO)[C@@H]2Cn3c(cccc3=O)[C@@H]2N1Cc1cc(F)ccc1F)N1CCOCC1	2	16
C[C@H]1CN([C@@H](C)CO)C(=O)c2cc(-c3ccncc3)cnc2O[C@@H]1CN(C)C(=O)c1cccc(F)c1	25	7
CNC[C@@H]1Oc2ccc(NC(=O)Nc3ccc(C(F)(F)F)cc3)cc2C(=O)N([C@H](C)CO)C[C@H]1C	-7	-8
O=C(C[C@@H]1CC[C@H]2[C@@H](COC[C@@H](O)CN2C(=O)Nc2ccc(F)cc2)O1)NCC1CC1	1	5
C[C@@H]1CCCCO[C@@H](CN(C)S(=O)(=O)c2ccccc2)[C@@H](C)CN([C@@H](C)CO)C(=O)c2cc(NC(=O)C3CCCCC3)ccc2O1	-16	-11
C[C@@H]1CCCCO[C@H](CN(C)S(=O)(=O)c2cccs2)[C@@H](C)CN([C@H](C)CO)C(=O)c2cc(NC(=O)c3ccncc3)ccc2O1	-11	-15
Cc1noc(C)c1NC(=O)N(C)C[C@H]1Oc2ccc(NC(=O)Cn3cnnn3)cc2C(=O)N([C@H](C)CO)C[C@H]1C	16	12
N#Cc1ccc(-c2ccc(C3[C@H]4CNC[C@@H]3N4C(=O)Nc3ccccc3F)cc2)cc1 (stereo partly specified)	0	0
C[C@H](CO)N1C[C@H](C)[C@H](CN(C)S(C)(=O)=O)Oc2ccc(NS(=O)(=O)c3cn(C)cn3)cc2C1=O	10	5
C/C=C/c1cnc2c(c1)C(=O)N([C@H](C)CO)C[C@H](C)[C@H](CN(C)C(=O)C1CCOCC1)O2	16	6
COc1ccc(NC(=O)N(C)C[C@@H]2Oc3c(NC(=O)CCCCCC(=O)Nc4ccccc4N)cccc3C(=O)N([C@@H](C)CO)C[C@H]2C)cc1	-2	14
CO[C@@H]1CN(C)C(=O)c2cc(NC(=O)Nc3ccccc3)ccc2OC[C@@H](C)N(CC2CC2)C[C@@H]1C	-17	-4
COc1cccc(-c2ccc([C@H]3[C@@H](CO)N4C(=O)CNC[C@@H]34)cc2)c1	-3	3
C[C@H](CO)N1C[C@H](C)[C@@H](CN(C)CC2CCCCC2)Oc2c(NC(=O)c3nc4ccccc4s3)cccc2C1=O	-31	-32
C[C@@H]1CN([C@@H](C)CO)C(=O)Cc2cc(NC(=O)Nc3ccccc3)ccc2O[C@H]1CN(C)Cc1ccc2c(c1)OCO2	-28	-17
CS(=O)(=O)N1[C@H](C#N)[C@H](c2ccc(-c3ccccc3F)cc2)[C@H]1CO	-16	-15
COc1ccc2c3c([nH]c2c1)[C@@H](CO)N(C(C)=O)CC31CN(C(=O)Nc2ccc(F)cc2F)C1	9	12
COc1ccc(NC(=O)N(C)C[C@H]2OCCCC[C@@H](C)Oc3ccc(NC(=O)NC(C)C)cc3C(=O)N([C@@H](C)CO)C[C@H]2C)cc1	10	7
CCNC(=O)[C@H]1[C@H](CO)[C@H]2Cn3c(ccc(-c4ccccc4)c3=O)[C@H]2N1Cc1cccnc1	12	12
O=C(C1CCCCC1)N1[C@@H](CO)[C@@H]2c3ccccc3NC[C@@H]21	3	4
CC(=O)N1[C@H](CO)[C@@H](c2ccccc2)C12CN(C(=O)c1ccccn1)C2	2	3
CC(C)NC(=O)N(C)C[C@H]1Oc2ccc(NC(=O)Nc3ccccc3)cc2CC(=O)N([C@H](C)CO)C[C@@H]1C	15	6
CCC(=O)N1C[C@@H](C)[C@H](OC)CN(C)C(=O)c2cc(NC(=O)c3cnccn3)ccc2OC[C@@H]1C	9	3
C[C@H](CO)N1C[C@H](C)[C@@H](CN(C)Cc2ccccc2)Oc2ccc(NC(=O)Cc3cn(C)c4ccccc34)cc2C1=O	-4	-2
CS(=O)(=O)N1[C@@H]2c3ccc(C4=CCCC4)c(=O)n3C[C@H]1[C@H](CO)[C@H]2C(=O)N1CCCCC1	12	6
OC[C@H]1[C@@H](c2ccc(C#CC3(O)CCCC3)cc2)[C@@H]2CN(Cc3cccnc3)CCCCN12	2	7
C[C@H]1CN([C@@H](C)CO)C(=O)Cc2cc(NC(=O)Cn3cnnn3)ccc2O[C@H]1CN(C)Cc1ccc2c(c1)OCO2	17	13
C[C@H](CO)N1C[C@H](C)[C@@H](CN(C)C(=O)Nc2ccccc2F)OCc2cnnn2CCCC1=O	-1&10	-2&16
Cc1ccc(S(=O)(=O)N(C)C[C@H]2Oc3ccc(NS(=O)(=O)c4cccs4)cc3CC(=O)N([C@@H](C)CO)C[C@@H]2C)cc1	3	32
C[C@@H]1CCCCO[C@H](CN(C)S(=O)(=O)c2ccccc2)[C@@H](C)CN([C@@H](C)CO)C(=O)c2cc(NS(C)(=O)=O)ccc2O1	18	10

Four entries already listed, arranged by length of the SMILES, falling:
SMILES	Vaccinia inh	Vaccinia inh Venus
Cc1ccc(S(=O)(=O)N(C)C[C@H]2Oc3ccc(NS(=O)(=O)c4cccs4)cc3CC(=O)N([C@@H](C)CO)C[C@@H]2C)cc1	3	32
C[C@H](CO)N1C[C@H](C)[C@@H](CN(C)Cc2ccccc2)Oc2ccc(NC(=O)Cc3cn(C)c4ccccc34)cc2C1=O	-4	-2
CC(C)NC(=O)N(C)C[C@H]1Oc2ccc(NC(=O)Nc3ccccc3)cc2CC(=O)N([C@H](C)CO)C[C@@H]1C	15	6
C[C@H](CO)N1C[C@H](C)[C@@H](CN(C)C(=O)Nc2ccccc2F)OCc2cnnn2CCCC1=O	-1&10	-2&16

Going on with the list:
SMILES	Vaccinia inh	Vaccinia inh Venus
CNC[C@@H]1Oc2ccc(NC(=O)Nc3ccc(C(F)(F)F)cc3)cc2C(=O)N([C@H](C)CO)C[C@@H]1C	-2	9
C[C@H](CO)N1C[C@H](C)[C@@H](CN(C)C(=O)Nc2cccc3ccccc23)OCCCC[C@H](C)Oc2ccc(NC(=O)NC3CCCCC3)cc2C1=O	23	15
CC(C)CN(C[C@H]1N[C@H](CO)[C@H]1c1ccccc1)C(=O)CN(C)C	5	1
CN1[C@@H]2Cn3c(ccc(-c4ccccc4F)c3=O)[C@H]1[C@@H](C(=O)NCc1ccccn1)[C@@H]2CO	24	18
Cc1noc(C)c1NC(=O)Nc1ccc2c(c1)C(=O)N(C)[C@@H]1CC[C@H](CC(=O)N[C@@H]3CCN(Cc4ccccc4)C3)O[C@@H]1CO2	9	2
C[C@@H]1CN([C@@H](C)CO)C(=O)c2cc(C#CCN(C)C)cnc2O[C@@H]1CN(C)S(C)(=O)=O	27	17
COc1ccc(NC(=O)Nc2ccc3c(c2)C(=O)N([C@@H](C)CO)C[C@H](C)[C@@H](CN(C)C(=O)Cc2ccccc2)OCCCC[C@H](C)O3)cc1	-32	-27
CO[C@H]1CN(C)C(=O)c2ccc(NC(=O)Nc3ccccc3)cc2OC[C@H](C)N(C(C)=O)C[C@H]1C	-10	-6
CN(C[C@@H]1N[C@H](CO)[C@@H]1c1ccc(C#CCC2CCCC2)cc1)S(C)(=O)=O	2	9
O=C([C@@H]1[C@@H](CO)[C@@H]2Cn3c(ccc(-c4ccccc4)c3=O)[C@@H]2N1CCC(F)(F)F)N1CCOCC1	18	14
COc1ccc(NC(=O)N(C)C[C@@H]2OCCCC[C@@H](C)Oc3ccc(NC(=O)Cc4ccccc4)cc3C(=O)N([C@@H](C)CO)C[C@@H]2C)cc1	-11	-7
C[C@H](NC(=O)C[C@@H]1C[C@@H]2c3cc(NC(=O)CC4CC4)ccc3O[C@@H]2[C@@H](CO)O1)c1ccccc1	-7	-9
CN1C(=O)c2cc(NC(=O)c3cccc(F)c3)ccc2OC[C@@H]2O[C@@H](CC(=O)NCC3CC3)CC[C@H]21	13	1
CCCNC(=O)C[C@@H]1CC[C@@H]2[C@H](COc3ccc(NC(=O)c4cccc(F)c4)cc3C(=O)N2C)O1	1	7
CC(C)NC(=O)N(C)C[C@H]1Oc2cc(C#CCN(C)C)ccc2S(=O)(=O)N([C@H](C)CO)C[C@@H]1C	7	0
C[C@@H]1CN([C@@H](C)CO)C(=O)c2cc(C3=CCCC3)cnc2O[C@@H]1CN(C)Cc1ccccc1	-13	-10

Bioassay records (PubChem BioAssay)
